Screens deposited in PubChem BioAssay by PCMD.
Biofilm kill mix = mixture kills Candida albicans biofilm cells; C. albicans biofilm persisters + clotrimazole, fluorescence viability; primary screen in compound mixtures of four per well; inhibition, % at 7.6 µM; actives 0.02% (n = 120,000);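 active means inhibition above 30.3% in the primary screen of four-compound pools, then above 30% when the compound was retested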;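 further: compounds exposed to preformed 24 h biofilms for 48 h; the number belongs to the whole pool; some results filed as inactive read as strong as hits; inactives centre near 12; 0% = biofilm with clotrimazole alone and 100% = kill control; retested singly at about 60 µM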
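Probe or stimulus – Clotrimazole 50 µg/mL co-treatment · System – C. albicans biofilms · Schedule – 24 h biofilm formation, then 48 h compound exposure, 37 °C · Evaluation – percent inhibition of biofilm viability · Technique – 2-h Alamar Blue fluorescence, 535/590 nm excitation/emission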
Numbers without * were called inactive.

Structure	Biofilm kill mix
CCC(C)NC(C(=O)Nc1ccc(Cl)c([N+](=O)[O-])c1)c1ccccc1 (stereo unspecified)	19.7
COc1ccc(NC(=O)CNC(=O)c2cccs2)cc1Cl	12.9
NC(=O)c1ccc(SCC(=O)NC2CCCCC2)c([N+](=O)[O-])c1	11.3
CC(C)c1cc(C(=O)N/N=C/C=C/c2ccccc2)n[nH]1	10.8
N#CC(C#N)=C1C=C2C=C(N3CCCCC3)CCC2CC1 (stereo unspecified)	7.7
CCC(C(=O)OCC(=O)Nc1cccc(S(=O)(=O)NC2=NCCCCC2)c1)c1ccccc1 (stereo unspecified)	0.1
CCOC(=O)c1c(C)n(-c2ccccc2)c2ccc(O)c(CN(C)C)c12	1.5
COc1ccc(-c2oc3cc(OC)c(O)c(OC)c3c(=O)c2OC)cc1O	19.9
COc1ccc(C(=O)O)cc1S(=O)(=O)N(C)CCc1ccccn1	24.4
O=C(Cn1cnc2ccccc21)N/N=C/c1cccc([N+](=O)[O-])c1	4.4
O=C(Nc1ccccc1)Oc1ccccc1N1CCOCC1	7.8
NC(=O)CSc1nnc(-c2ccc([N+](=O)[O-])cc2)o1	8.5
COC(=O)C1=C(C)N(c2cccc(OC)c2)C(=O)/C1=C\c1ccco1	17.9
Cc1cccc(Nc2c(F)c(F)c(F)c(F)c2C(=O)O)c1	19.6
N#CCc1nc2ccc(S(=O)(=O)N3CCOCC3)cc2s1	16.1
COc1ccc(CNC(=O)c2sc3nc4c(c(C(F)(F)F)c3c2N)CCC4)cc1	12.3
Cc1nnc(SCc2cccc3ccccc23)s1	5.4
COc1cc(OC)cc(C(=O)NCC(=O)OCc2cc(=O)oc3cc(OC)ccc23)c1	15.1
Cn1c(SCC(=O)N2CCCC2)nnc1-c1cnccn1	25.6
O=S1(=O)CCC(NC(=S)Nc2ccccc2)C1 (stereo unspecified)	10.2
Cc1cccc(C)c1NC(=O)C1(C)c2cccc[n+]2CC(=O)N1Cc1cccs1 (stereo unspecified)	2.3
Cn1cc(CNCc2ccc(-n3cccn3)cc2)c(-c2ccccc2F)n1	-2.3
CC(C)CN1CCN(Cc2ccc(Oc3ncccn3)cc2)CC1CCO (stereo unspecified)	24.0
COc1ccccc1C(=O)Nc1cccc(SC)c1	15.7
Cc1cc(-c2sccc2Br)nc(-n2cccc2)n1	19.4
CC(Cl)C(=O)Nc1ccccc1C#N (stereo unspecified)	13.8
COc1ccc(-c2ccc(OC)c([C@H]3[C@H]4C=CC[C@@H](C)[C@@H]4C(=O)N3Cc3ccccc3)c2)cc1C	16.5
COc1ccc(C(=O)N2CCN(c3cccc(Cl)c3)CC2)cc1	20.7
Cc1cc(-c2onc(C)c2C(N)=O)no1	9.4
CC(/C=C1\SC(=S)N(C(C(=O)O)c2ccccc2)C1=O)=C\c1ccccc1 (stereo unspecified)	13.7
CSc1cccc(NC(=O)c2ccccn2)c1	5.6
CC(C)(C)N=C1NN=C(c2ccc(Cl)cc2)CS1	14.8
CN(Cc1ccccc1)C(=O)CN1C(=O)C2C3C=CC(C3)C2C1=O (stereo unspecified)	16.7
Cc1cc(C(F)(F)F)c(C#N)c(SCC(=O)Nc2nc3cc(Br)ccc3s2)n1	7.8
Cc1cccc(NC(=O)NNC(=O)c2sccc2-n2cccc2)c1	6.3
O=C(Nc1ccc(F)cc1)c1nc2c(nnn2Cc2cccc3ccccc23)c(=O)[nH]1	24.6
Nc1nc(SCC(=O)Nc2ccc3c(c2)OCO3)n[nH]1	16.1
O=C(CN1CCCCCC1=O)N1CCN(S(=O)(=O)c2cccs2)CC1	6.0
COc1ccc(OC)c(NC(=O)c2cccnc2Sc2ccccc2)c1	-14.6
O=C(N/N=C/c1oc(O)c2ccccc12)c1ccccc1	19.9
O=C(CSc1nnc(-c2ccco2)o1)c1ccc[nH]1	4.3
O=C(O)CSCc1nc2scc(-c3ccccc3)c2c(=O)[nH]1	5.2
O=C(/C=C/c1ccco1)NC(=S)Nc1ccccc1N1CCCC1	10.6
CCn1cc(Cl)c(C(=O)Nc2cccc(C(F)(F)F)c2)n1	9.5
CCOC(=O)c1ccc(Oc2cn[nH]c2-c2ccc(O)cc2O)cc1	19.2
COc1ccc2sc(N(CCN(C)C)C(=O)c3cc(Cl)sc3Cl)nc2c1	19.5
CCCOc1ccc(C(=O)OCC(=O)c2c(N)n(C)c(=O)n(C)c2=O)cc1OC	3.4
COc1cc(OC)c(NC(=O)CC(C)=O)cc1Cl	8.1
COc1ccc(Cc2noc(CN(C)CCN3CCc4ccccc4C3)n2)cc1OC	15.8
CCN(CC)CCN1C(=O)C(=O)/C(=C(/O)c2c(C)[nH]c(C(=O)OC)c2C)C1c1ccc(C)o1 (stereo unspecified)	16.6
CCNC(=S)N1CCN(S(=O)(=O)c2ccccc2C(F)(F)F)CC1	2.9
CCc1cc2cc(OC)ccc2nc1SCC(=O)NNC(=O)c1ccco1	6.2
O=C(NC(=S)NN1CCCCC1c1cccnc1)c1ccc(Cl)cc1Cl (stereo unspecified)	21.2
CC(C)(C)N1C(=O)c2ccc(C(=O)Nc3ccc(-c4nc5ccccc5[nH]4)cc3)cc2C1=O	19.2
CCOc1ccc(C(=O)NC(=S)NC2CCCC2)cc1[N+](=O)[O-]	17.8
Cc1c(C(=O)N/N=C/c2ccc(O)c(Br)c2)sc(N)c1C#N	15.4
N/C(COc1ccc(Cl)cc1Cl)=N\O	19.8
c1csc(-c2nnc(NC3CCCCC3)c3ccccc23)c1	22.1
Cc1ccc(C)c(N2CCN(C(=O)C3CCN(S(=O)(=O)c4c(C)noc4C)CC3)CC2)c1	1.1
CC(C)N1CCC(N2CCN(Cc3ccc4nsnc4c3)CC2CCO)CC1 (stereo unspecified)	2.8

(further entries)
Structure	Biofilm kill mix
O=C(CSCCS(=O)(=O)c1ccc(Cl)cc1)Nc1ccccc1	17.9
O=C(CSc1ccc(Cl)cc1)Nc1cccc(-c2nc3ccccc3[nH]2)c1	21.5
Cc1cc(C)n(C)c(=O)c1C#N	6.6
CC1CCCCC1NC(=O)NC(=O)CCl (stereo unspecified)	-15.2
CCCCC(=O)Nc1nnc(C2=COCCO2)o1	2.5
CCOC(=O)c1c(C)[nH]c(C(=O)N/N=C/c2cccc(OC)c2)c1C	24.8
CCOCCCNC(=O)c1ccc(-n2c(=S)[nH]c3ccccc3c2=O)cc1	18.4
O=[N+]([O-])c1ccccc1S(=O)(=O)NCc1cccnc1	2.1
COc1ccc(NS(=O)(=O)c2cc(NC(=O)c3ccncc3)ccc2N2CCOCC2)cc1	15.4
O=C(CS(=O)(=O)Cc1ccccc1)Nc1ccccc1Cl	6.5
COc1ccccc1N1CCN(C(=O)CCc2c[nH]c3ccccc23)CC1	14.1
Cc1onc(-c2ccccc2Cl)c1C(=O)Nc1ccc(OCC(=O)N2CCOCC2)cc1	16.4
COc1cccc(/C=N/NC(=O)c2cc3c(OC)cccc3[nH]2)c1O	2.7
Cc1ccc(NC(=O)Cn2c(O)c(N=NC(=O)c3cc4ccccc4cc3O)c3ccccc32)cc1	13.4
CC1(CCc2ccccc2)NC(=O)N(CC(=O)Nc2ccccc2)C1=O (stereo unspecified)	17.1
COc1ccc(/C=C/C(=O)Nc2c(C)nn(C)c2C)cc1COc1ccc(Br)cc1	7.3
O=c1cc(COc2ncnc3ccccc23)nc2sccn12	9.0
CCOc1ccccc1Nc1nc2ccccc2n2cnnc12	7.8
O=C(Nc1c(C(=O)C2CC2)oc2ccccc12)c1ccc(Cl)cc1	10.2
COc1cc2c(cc1OC)C(c1ccccc1F)OC(=O)C2 (stereo unspecified)	13.4
O/N=C/c1ccnc(SCc2ccc(Cl)cc2)n1	2.7
CCOC(=O)c1c(C)n(C)c2ccc(OC)c(NC(=O)CCN3CCC(Cc4ccccc4)CC3)c12	16.5
CC/C(=N\NC(=O)c1ccc(CN(C)S(=O)(=O)c2ccc(C)cc2)cc1)c1ccc(OC(F)F)cc1	11.8
O=C(O)CCCNC(=O)/C=C/c1ccco1	8.6
Cc1ccc(F)cc1NC(=O)N1CCN(C2c3ccccc3-c3ccccc32)CC1	15.4
COc1cccc(Oc2ccc(N/C=C/C(=O)C(C)(C)C)cc2)c1	6.5
COc1cccc(C(=O)NCCSc2ccc(F)cc2)c1	8.6
CN1CCN(S(=O)(=O)c2ccc(NC(=S)NC(=O)C3CC3)cc2)CC1	15.1
Cc1sc(NC(=O)c2ccc(F)cc2)c(CN2CCCCCC2)c1C	15.3
CC(C)CN1C(=O)/C(=C/c2cccs2)NC1=S	14.9
CCc1nnc(NC(=O)c2cccnc2SC)s1	6.0
CCOc1ccc2ncc(C(=O)c3ccc(OC)cc3)c(N3CCN(CC)CC3)c2c1	11.0
CC(C)(C)OC(=O)NNC(=O)NC12CC3CC(CC(C3)C1)C2	-0.7
Cc1cccc(NC(=S)N=Nc2c(O)[nH]c3ccccc23)c1	8.6
O=C(CN1CCOCC1)Nc1cc([N+](=O)[O-])ccc1Cl	9.8
CCc1nnc(NC(=O)CSc2nc(-c3ccccc3)c(-c3ccccc3)o2)s1	16.6
O=C(Nc1cccc2c1CCCC2)c1ccc(Cl)c([N+](=O)[O-])c1	11.4
O=S(=O)(NC(=NCc1ccccc1)c1ccc(F)cc1)c1ccc(Cl)cc1	9.7
O=c1[nH]c2cc(S(=O)(=O)CCO)ccc2o1	14.6
COc1ccccc1C(C#N)N1N=C(C)CC1(C)C (stereo unspecified)	8.6

3 structures out of the list, arranged by length of the SMILES, lowest first.
Structure	Biofilm kill mix
COc1ccccc1C(C#N)N1N=C(C)CC1(C)C (stereo unspecified)	8.6
Cc1cccc(NC(=S)N=Nc2c(O)[nH]c3ccccc23)c1	8.6
CCc1nnc(NC(=O)CSc2nc(-c3ccccc3)c(-c3ccccc3)o2)s1	16.6

Other structures:
Structure	Biofilm kill mix
O=C(CSc1nnnn1-c1ccccc1)Nc1ncc(Cc2ccccc2Cl)s1	3.7
C=CCC(C(=O)OC)(C(=O)OC)c1ccc([N+](=O)[O-])cc1[N+](=O)[O-]	17.2
COC(=O)c1ccc(NC(=O)Nc2cccc(F)c2)cc1	9.7
CC(C)(C)S(=O)(=O)c1cnc2c(-c3ccsc3)cnn2c1N	12.6
S=C(NCCc1ccccc1)N/N=C/c1ccccc1Cl	21.6
Cc1nc2ccc(NC(=O)CCS(=O)(=O)c3ccc(Cl)cc3)cc2s1	10.9
CNC(=O)[C@@H]1C[C@H]1[C@@H](NC(=O)OCc1ccccc1)c1ccccc1	8.7
CCCC(C(=O)NC(C)(C)C)N(CC1CCCO1)C(=O)c1snc(C(N)=O)c1N (stereo unspecified)	34.4
O=C(O)CCSc1nnc(COc2cccc3cccnc23)n1-c1ccccc1	11.1
COC(=O)[C@@H]1CCCN1C(=O)CCc1nnc(C2CCCCC2)o1	12.2
CSc1ccc(CNC(C)(C)CO)cc1	-0.1
c1ccc(C(c2ccccc2)N2CCN(Cc3nnnn3C3CCCCC3)CC2)cc1	6.6
COc1ccc(NC(=O)c2ccc3nccnc3c2)cc1	16.8
Cc1ccc(C2CC(=O)Nc3c2ccc2ccccc32)cc1[N+](=O)[O-] (stereo unspecified)	3.9
COc1cc([C@@H]2C[C@H]3CN(c4ccccc4)C(=O)[C@]34CCCN24)cc(OC)c1OC	6.9
O=C(CCC1CCCC1)Nc1ccc([N+](=O)[O-])cn1	8.2
COc1ccc(S(=O)(=O)N2N=C(c3ccc(NS(C)(=O)=O)cc3)CC2c2ccco2)cc1 (stereo unspecified)	13.7
Cc1ccc(S(=O)(=O)c2ccc(Cl)cc2)cc1S(=O)(=O)NC(C)C(=O)O (stereo unspecified)	9.7
CCc1ccc(CN(C)Cc2nc(COc3ccccc3)no2)nc1	11.5
Nc1ccccc1C(=O)NNC1=C(C(=O)C(F)(F)F)CCC1	16.8
Cn1c(O)c(N=NC(=O)c2cc(-c3cccs3)nc3ccccc23)c2ccccc21	23.2
O=C(Oc1cccc2cccnc12)c1cccc([N+](=O)[O-])c1	13.2
CCCN1C(=O)c2cccc3c(N4CCCCC4)ccc(c23)C1=O	8.3
CCOC(CC(=O)NNC(=O)c1c(-c2ccccc2Cl)noc1C)OCC	15.8
Cn1c(SCC(=O)NCc2ccco2)nnc1-c1ccccc1	9.9
O=S(=O)(Nc1cc2nc3ccccc3nc2n1Cc1ccccc1)c1ccc(Cl)cc1	16.2
COc1ccc(CCNC(=S)Nc2ccccc2)cc1	-1.2
CC(=O)NC(Cc1ccccc1)C(=O)OCC(=O)c1ccccc1 (stereo unspecified)	3.8
CCOC(=O)c1c(-c2ccc(F)cc2)csc1/N=C/N(C)C	9.3
O=c1c2ccccc2cnn1Cc1n[nH]c(=S)n1-c1cc(Cl)cc(Cl)c1	5.0
O=C1NC[C@@H](Cc2ccc(O)cc2)N(CCc2cccc(F)c2)C1=O	16.0
O=C(CN1C(=O)C2C3C=CC(C3)C2C1=O)Nc1ccc(F)cc1 (stereo unspecified)	3.4
O=C(/C=C/c1ccccc1)N1CCN(c2c(Cl)cccc2[N+](=O)[O-])CC1	-12.7
O=C(N/N=C(\c1ccccc1)c1ccccn1)c1cccc([N+](=O)[O-])c1	22.2
ClCC1CN(Cc2ccccc2Cl)CCO1 (stereo unspecified)	4.6
Cc1coc2cc3oc(=O)c(Cc4ccccc4)c(C)c3cc12	24.8
COc1ccc(-c2cc(-c3ccco3)[nH]c(=O)c2C#N)cc1OC	0.6
COc1ccc(NC(=S)Nc2ccccc2OC)c(OC)c1	13.3

An excerpt; count on the stated rates, not on these rows.
